D2 ag = human D2 receptor agonism in beta-arrestin assay. P14416. DiscoveRx PathHunter D2 beta-arrestin, luminescence, 90 min; 100% = 57 uM dopamine signal. activation, % (concentration not given with the values). 0.084% of 360,000 active. AID 624465; in the data active = activation above about 40%; inconclusive = about 15% to 40%; inactive = below about 15%; further: compound concentration not given in the record; the text of the record calls up to 30% inactive
Target sequence (P14416 whole entry, looked up): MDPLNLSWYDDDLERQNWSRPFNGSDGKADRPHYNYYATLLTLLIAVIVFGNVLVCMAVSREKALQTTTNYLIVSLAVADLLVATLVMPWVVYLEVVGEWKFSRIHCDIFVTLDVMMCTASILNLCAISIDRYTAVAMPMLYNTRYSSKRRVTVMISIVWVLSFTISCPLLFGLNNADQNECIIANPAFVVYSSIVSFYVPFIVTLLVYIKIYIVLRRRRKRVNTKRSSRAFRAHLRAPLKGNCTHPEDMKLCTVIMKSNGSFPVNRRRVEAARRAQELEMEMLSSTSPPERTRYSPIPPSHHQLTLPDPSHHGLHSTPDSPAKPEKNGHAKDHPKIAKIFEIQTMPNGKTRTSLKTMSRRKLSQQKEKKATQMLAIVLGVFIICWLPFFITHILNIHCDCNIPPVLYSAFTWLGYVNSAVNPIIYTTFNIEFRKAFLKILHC
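Agonist mode: compounds alone added to overnight-plated D2 PathHunter cells for 90 min at 37 C, with 57 uM final dopamine (EC100) defining full response. Beta-arrestin recruitment detected by chemiluminescent reagent, read after 1 h at ambient temperature.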
Six1-Eya2 inh = inhibitors of human Six1/Eya2 interaction; AlphaScreen GST-Six1/His-Eya2 binding, biochemical; active compounds read low; control for the full effect not named in the record; activity change, % (test concentration not listed); 0.56% of 360,000 active; AID 651725; in the data active = activity change below about -65%; inconclusive = about -30% to -65%; inactive = above about -30%; further: on the % scale 0 is the no-effect control and ±100 the full control effect
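Homogeneous AlphaScreen proximity assay pairing GST-Six1 with His-tagged Eya2 (added as 5X mix: 250 nM and 500 nM) in 50 mM Tris pH 8.0, 300 mM NaCl, 1 mM TCEP. Glutathione donor and nickel acceptor beads; 1 h, 37 °C, dark.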
gsp ag = gsp mutant agonism; Potency, µM (top dose mostly 76.9 µM), for the others: at the top dose activation (cAMP increase), hits mostly activators; 0.13% of 340,000 active; gsp mutant cells, cAMP HTRF, 30 min; control for the full effect not named in the record; active = well fitted activation curve with a large enough effect; inconclusive = small, poorly fitted or top-dose-only effect, or another doubt; inactive = no such curve, though single readings can be large or run the other way; cell line not stated here;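 further: phosphodiesterase inhibitor Ro 20-1724 added with compounds to block cAMP breakdown; potency means the concentration at half of the fitted maximal effect; nearly all actives have a fitted effect of over 60% in size; about a fifth of the inactives were tested at one dose only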
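Cells stably selected in G418 were plated at 2000/well, grown 16-24 hr, then given compounds in DMSO with the PDE inhibitor […] (300 uM solution added) for 30 min at 37C; cAMP was read by HTRF.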
CtBP-E1A blk = blocks the CtBP interaction with E1A; AlphaScreen GST-E1A/His-CtBP binding, 1536-well; active compounds read low; control for the full effect not named in the record; activity change, % (concentration not given with the values); 0.49% of 340,000 active; AID 651724; in the data active means activity change below about -65%; inconclusive means about -30% to -65%; inactive means above about -30%; further: on the % scale 0 is the no-effect control and ±100 the full control effect
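In 5 uL wells, 23 nL compound meets equimolar GST-E1A and His-CtBP (5X stock 125 nM each) for 2 h, 37 °C. Beads (5X, 50 ug/mL) then 1 h, 37 °C, dark.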
D2 PAM = positive allosteric modulators of human D2 dopamine receptor; DiscoveRx D2 beta-arrestin cells, luminescence, 90 min; 100% = 57 uM dopamine signal; P14416; AID 624464; 0.23% of 360,000 active; potentiation, % (test concentration not listed); active = potentiation of 50% or more; inconclusive = 30% to 50%; inactive = 30% or less;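 further: compound concentration not given in the record; tested on top of an EC20 dose of dopamine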
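PathHunter D2 cells, attached overnight at 37 deg C, received compound in DMSO plus dopamine at EC20 (50 nM final) for 90 min at 37 deg C. Beta-arrestin recruitment was read as luminescence after 1 h with detection reagent at ambient temperature.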
gsp antagonist = antagonists of gsp mutant (McCune-Albright syndrome). gsp-mutant cells, cAMP HTRF, 30 min; control for the full effect not named in the record. Potency, µM (top dose mostly 76.9 µM), for inactives: at the highest dose activity change, negative = inhibition, actives largely listed as inhibitors. 0.4% of 340,000 active. AID 624288; active = falling curve of any shape with a large fitted effect; inconclusive = falling curve, mostly with a smaller effect; inactive = flat or rising curve; cell line not stated here;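 further: intracellular cAMP measured with PDE inhibitor Ro 20-1724 present during compound exposure; potency means the concentration at half of the fitted maximal effect; on the % scale 0 is the no-effect control and ±100 the full control effect; nearly all actives have a fitted effect of over 65% in size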
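G418-selected cells were plated in DMEM/10% FBS for 16-24 h at 37C, then treated with compounds plus the PDE inhibitor […] (300 uM solution added) for 30 min at 37C. Intracellular cAMP was measured by HTRF after 30 min lysis at room temperature.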
Active calls of the source: *; ? = inconclusive; nt = no result given; [ ] = remark or other dose. Random draw from the library; about 1.4% have a hit in one of these screens.

SMILES	D2 ag	Six1-Eya2 inh	gsp ag	CtBP-E1A blk	D2 PAM	gsp antagonist
O=C(NC(Cc1ccccc1)C(=O)N1CCCCC1)c1ccccc1 (stereo not drawn)	4.0	0	6%	3	-4	9%
O=C(COC(=O)CNC(=O)c1ccccc1)Nc1ccc(Cl)cc1C(F)(F)F	-3.6	10	-12%	-12	-18	10%
Cc1ccc(Cl)cc1N1C(=O)CC(C)(C)CC1=O	-5.3	-2	-7%	nt	-4	8%
COC(=O)/C=C/c1ccccc1S(=O)(=O)N(Cc1ccccc1)Cc1ccco1	-1.4	-6	?	-3	-2	23%
Cc1cc(C)n(CCN(C)Cc2cn[nH]c2-c2ccc(F)cc2F)n1	-1.7	-3	-39%[inhibitor]	nt	-9	7%
c1cc2nncn2nc1N1CCCC1	-2.8	-1	-20%	1	-3	15%
Cc1ccc(SCCN2CCN(CCc3ccccc3)CCC2=O)cc1	-1.7	-6	nt	-15	-20	6%
C/C(=N\NC(=O)CN1CCOCC1)C(C)(C)C	-3.1	1	-44%[inhibitor]	0	-5	10%
CN(C(=O)COC(=O)c1cc([N+](=O)[O-])ccc1Cl)c1ccccc1	-2.9	-13	-3%[15.4 µM]	12	-2	-5%
COc1cc(OC)cc(C(=O)NCCOc2ccccc2)c1	-4.0	-2	1%	-10	-27	1%
O=C(O)c1ccccc1C(=O)N1CC=C(c2ccccc2)CC1	0.3	-1	-3%	0	-30	8%
COC/C=C/C1=CC2=CC(=O)C(C)(OC(=O)c3cnc4ccccc4n3)C(=O)C2=CN1CCCCO (stereo not drawn)	4.2	-10	nt	-10	8	-2%
Cc1nn(C(=O)c2cccnc2)c(C)c1Sc1ccccc1	1.0	-14	7%	-14	-9	-18%
Cc1cccc2cc(CN(Cc3nnnn3C3CCCC3)C3CCCCC3)c(=O)[nH]c12	-1.6	17	?	0	-8	-10%
COc1ccccc1N1CCN(C2CC(=O)N(c3cccc(Br)c3)C2=O)CC1 (stereo not drawn)	-2.6	-9	1%	-3	-24	9%
COc1ccccc1N(C)S(=O)(=O)c1ccc(C(=O)Nc2nc(C)c(C(C)=O)s2)cc1	-2.8	7	?	nt	-12	-4%
CCCc1ccc(C(=O)N2CCN(c3ccccc3OCC)CC2)cc1	0.5	-1	2%	-2	-17	-3%
CN1CCN(CCN2CCn3c2nc2ccccc23)CC1	-3.1	5	10%	8	-8	-1%
O=S(=O)(Nc1cc(Cl)ccn1)c1ccc(Cl)cc1	-2.0	1	-6%	-2	-10	-29%
CS(=O)(=O)Nc1cccc(C2=NN(C(=O)CCC(=O)O)C(c3cccs3)C2)c1 (stereo not drawn)	-0.7	13	5%	nt	-3	0%

The closing 4 records of the section above lead into the next:
SMILES	D2 ag	Six1-Eya2 inh	gsp ag	CtBP-E1A blk	D2 PAM	gsp antagonist
CCCc1ccc(C(=O)N2CCN(c3ccccc3OCC)CC2)cc1	0.5	-1	2%	-2	-17	-3%
CN1CCN(CCN2CCn3c2nc2ccccc23)CC1	-3.1	5	10%	8	-8	-1%
O=S(=O)(Nc1cc(Cl)ccn1)c1ccc(Cl)cc1	-2.0	1	-6%	-2	-10	-29%
CS(=O)(=O)Nc1cccc(C2=NN(C(=O)CCC(=O)O)C(c3cccs3)C2)c1 (stereo not drawn)	-0.7	13	5%	nt	-3	0%
CCOC(=O)/C(C#N)=C/Nc1ccccc1NS(=O)(=O)c1ccc(C)c(C)c1	-0.2	5	25%[15.4 µM]	7	-6	3%
CCOC(=O)CNC(=O)CSc1nc(Cc2cccs2)nc2ccccc12	-2.4	-10	-10%	4	-16	-5%
O=C(CCc1ccccc1)N1CCCN(C(=O)CCc2ccccc2)CC1	-1.9	8	12%	3	-15	5%
Cc1cc(C)cc(NC(=O)CCC(=O)Nc2nnc(C(F)(F)F)s2)c1	-3.0	1	-13%	8	-2	3%
CC1Cc2ccccc2N1C(=O)CSc1nccc(=O)[nH]1 (stereo not drawn)	-1.7	2	7%[15.4 µM]	0	-7	-17%
O=C(NC1CC2CCCC(C1)N2C(=S)Nc1ccccc1Cl)C1CC1 (stereo not drawn)	-2.3	1	-5%[15.4 µM]	-10	-11	-2%
Cc1ccc(S(=O)(=O)C2C(=O)N(C)C3(C)CC2c2ccccc2O3)cc1C (stereo not drawn)	-2.2	-3	-89%[inhibitor]	0	-26	8%
O=c1c2cc([N+](=O)[O-])cc([N+](=O)[O-])c2[nH]n1-c1ccccc1	-14	?	1%	?	-32	?
COc1ccccc1C(=O)NC(=O)COC(=O)c1nccnc1N	-4.0	-10	-13%	-4	7	14%
COC(=O)N1C(=O)[C@@](Cc2ccccc2)(c2ccccc2)N1C(=O)OC	-2.4	-4	-10%	2	-16	21%

An excerpt from above with just D2 ag and Six1-Eya2 inh.
| structure | D2 ag | Six1-Eya2 inh |
| --- | --- | --- |
| COc1ccccc1C(=O)NC(=O)COC(=O)c1nccnc1N | -4.0 | -10 |
| O=c1c2cc([N+](=O)[O-])cc([N+](=O)[O-])c2[nH]n1-c1ccccc1 | -14 | ? |
| CC1Cc2ccccc2N1C(=O)CSc1nccc(=O)[nH]1 (stereo not drawn) | -1.7 | 2 |

(list continues)
SMILES	D2 ag	Six1-Eya2 inh	gsp ag	CtBP-E1A blk	D2 PAM	gsp antagonist
Cc1cccc(N/C(N)=N/c2nc(C)c(Cc3ccccc3)c(=O)[nH]2)c1	5.1	1	-15%[15.4 µM]	2	5	12%
Cc1ccc(-n2cnc3cc(NCc4cccs4)ccc32)cc1	-0.3	-24	7%	?	-3	?
COc1cc(/C=N/N(C)C)ccc1OC(=O)c1ccco1	-3.6	6	-6%[15.4 µM]	0	-11	nt
Cc1ccc(C(=O)NCC(=O)NCC(=O)OCC(=O)c2ccc(Br)cc2)cc1	-9.6	15	1%	1	-14	7%
CCN(C[C@H]1N[C@@](C)(C(=O)OC)[C@H]2C(=O)N(Cc3ccccc3)C(=O)[C@@H]12)C(=O)c1ccc(C)cc1	0.9	5	nt	5	0	-3%
COC(=O)CN1C(=O)COc2ccc(S(=O)(=O)N3CCCCC3)cc21	-2.4	3	-17%	1	-17	nt
CC(=O)Oc1ccc(C(=O)Cc2ccc3ccccc3n2)c(O)c1C	-5.3	-2	-27%	4	-1	14%
CCn1c(=O)cc(OCC(=O)Nc2ccc(OC)c(OC)c2)c2ccccc21	-2.5	-8	-24%[15.4 µM]	-9	1	-5%
CCOC(=O)c1cnc(SCC(=O)Nc2sc(C)c(C)c2C#N)nc1N	-4.5	16	10%	0	-8	8%
CN1/C(=C\C(=O)c2ccccc2Cl)c2ccccc2CC1(C)C	-1.9	3	-18%	-10	-5	-12%
COC(=O)c1ccc(CSc2ncnc3c2nnn3-c2ccc(F)cc2)o1	-3.4	-4	?	5	-12	-1%
O=c1c2cn[nH]c2[nH]c(=S)n1-c1cccc2ccccc12	-8.3	-3	?	-3	-17	13%
CC(Nc1ccc(Br)cc1)C(=O)N/N=C/c1ccccc1OCc1ccccc1 (stereo not drawn)	-2.9	-14	-1%	-13	-8	-5%
CCC(C)NCC(O)COCc1ccc(Cl)cc1 (stereo not drawn)	-3.4	16	-6%	-6	-2	11%
COc1ccc(S(=O)(=O)N(C)c2ccc(C(=O)N3CCOCC3)cc2)cc1OC	0.4	6	?	3	-13	7%
NS(=O)(=O)c1ccc(NC(=O)C2CCCN(S(=O)(=O)c3ccc(F)cc3)C2)cc1 (stereo not drawn)	-0.6	1	-2%	4	-10	1%
O=C(CNS(=O)(=O)c1cccc2nsnc12)NCc1ccc(Cl)cc1	-1.7	?	2%	1	-10	-7%
COc1ccc(S(=O)(=O)Nc2ccc(S(=O)(=O)N3CCOCC3)cc2)cc1C	-2.3	6	3%	-1	-1	-18%
O=C1/C(=C/c2cccs2)SC(=S)N1C1CCS(=O)(=O)C1 (stereo not drawn)	0.7	-13	-2%[15.4 µM]	-14	2	-16%
Cc1ccccc1NC(=O)Cc1nc(COC(=O)COc2cccc(C)c2C)cs1	0.3	6	29%[15.4 µM]	6	2	-7%
CC(C)(C)c1ccc(C(=O)NNC(=O)c2ccncc2)cc1	-0.1	3	?	0	-3	-2%
C#CCOCCOCCOCCNc1nc(N2CCN(C(=O)Cn3cc(CCCCN)nn3)CC2)nc(N2CCN(C(=O)[C@H](CCCCN)n3cc(CCC(=O)O)nn3)CC2)n1	-1.1	2	nt	2	-28	8%
Clc1ccc(-c2csc(Nc3ccccc3)[n+]2Cc2ccco2)c(Cl)c1	4.3	-15	-33%	nt	6	-23%
CCOC(=O)c1ccc(NC(=O)CCc2ccc(C)o2)cc1	1.8	-1	11%	-2	8	-1%
CN(C)C(=O)/C(=C\c1ccncc1)NC(=O)c1ccccc1	-6.6	0	-25%[15.4 µM]	-5	4	11%
CCN(CC)c1ccc(/C=C(\C#N)c2ccccn2)cc1	-4.2	69	3%[15.4 µM]	26	-11	-1%
O=C1CCN(C(=O)c2cccs2)c2ccccc21	-5.2	1	-1%[15.4 µM]	-1	-6	10%
O=C(Nc1ccc(F)c(Cl)c1)c1cncs1	-0.2	-4	-31%	-21	2	3%
O=C(NCc1ccccc1F)c1ccc(S(=O)(=O)N2CCCCCC2)cc1	-4.3	-1	-4%	nt	-1	3%
S=C(Nc1ccc2nc(-c3ccccn3)c(-c3ccccn3)nc2c1)N1CCOCC1	1.1	4	15%[15.4 µM]	-2	-2	7%
CCOC(=O)c1c(NC(=O)COC(=O)Cn2cnc3ccccc32)sc(C)c1C	0.2	-3	-17%	2	16	-8%
O=C(NCCN1CCOCC1)Nc1ccc(F)cc1	2.0	1	?	-4	-6	6%
O=C(/C=C/c1ccc(F)cc1)NC(=S)NNC(=O)c1cnccn1	-0.8	-90*	0%[15.4 µM]	-81*	-8	5%
Cn1cnnc1SCC(=O)NC1CCCCCC1	6.6	-2	6%	-11	1	8%
COc1ccc(-c2nc(N)n(C(=O)c3ccccc3)n2)cc1	-4.6	7	8%[15.4 µM]	-25	-24	nt
CS(=O)(=O)Nc1ccc(Br)cc1C(=O)c1ccccc1	-0.6	9	-3%	0	-2	-9%
O=C(CSc1ncccc1C(=O)O)NCc1ccc(F)cc1	2.7	6	-48%[inhibitor]	1	-18	9%
CCOC(=O)c1c(C)c(C(=O)Nc2ccc(F)cc2)c(C)n1C	-3.5	4	19%	2	-1	-1%
CC1CCN(C(CNS(=O)(=O)c2ccccc2)c2ccccc2)CC1 (stereo not drawn)	-2.7	1	22%	-13	-18	2%
O=C(O)C1C(C(=O)Nc2ccc(Cl)cc2)C2C=CC1C21CC1 (stereo not drawn)	-1.9	-1	-28%	-1	3	10%
COc1cccc(CN(C)C(=O)CN2C(=O)NC(c3ccccc3)(c3ccccc3)C2=O)c1OC	5.9	-7	-12%	0	0	-2%
Cc1cc(C(=O)COc2ccc(C#N)cc2)c(C)n1-c1ccc2c(c1)OCO2	1.1	-14	-6%	-5	-12	3%
CN(CC(=O)Nc1cccc(S(=O)(=O)NC2=NCCC2)c1)Cc1ccccc1Cl	6.8	-3	?	-9	-2	-6%
Brc1ccccc1/C=N/N1CCCCC1	2.2	-15	-7%[15.4 µM]	-1	-7	-15%
